RanGTP-Impb inh = inhibitors of RanGTP-importin-beta interaction, primary screen, biochemical, FRET, CFP-Ran, YFP-importin-beta, homogeneous; inhibition, % (concentration not given with the values); cell-free CFP-Ran/YFP-importin-beta FRET ratio; 300,000 compounds, 1.1% hits;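 active = most replicates above 15%; inconclusive = exactly half above 15%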;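 also: 0% = DMSO wells and 100% = Ran loaded with GDP instead of GTP; wells of about 40 µL received 100 nL stock; the first replicate is given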
Beta apoptosis = blocks beta cell apoptosis; INS-1E cytokine-induced death, ATP luminescence, 48 h; percent of positive-control rescue, neutral wells zero; protection from apoptosis, % (no concentration beside the values); 300,000 compounds, 0.8% hits;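 active = all replicates at 75% or more, or half of them and the mean; inconclusive = half reach 75% but not the mean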;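 also: 0% = cytokine-treated negative control wells and 100% = positive control rescue; higher means more ATP so stronger rescue from cytokine killing; wells of about 40 µL received 100 nL stock; the first replicate is given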
Beta2AR agonist = human beta-2 adrenergic receptor agonism by FAP; P07550; Am2.2-beta2AR cells, FAP receptor internalization, flow cytometry; reference of the scale not given here; response, % (concentration not given with the values); 340,000 compounds, 0.43% hits; AID 504454;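 active = response above a set limit, near 3 SD of response in nonfluorescent compounds, cut at about 42% in these data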;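 also: stock transfer was 100 nL into about 11 µL; a reference agonist was the positive control; negative values mostly stem from fluorescent compounds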
A1 inh = inhibitors of the anti-apoptotic protein A1, read as caspase activation. MEF A1-2A-BIM cells, Caspase-Glo 3/7 luminescence, 3 h; percent of clofoctol response, vehicle zero. caspase activation, % (concentration not given with the values). 330,000 compounds, 0.066% hits. AID 2462;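 active = over half of replicate activation scores above 10%, or exactly half above 10 with the replicate mean above 10; inconclusive = replicate mean below 10 yet half the replicates above 10; inactive = over half of replicates below 10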;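 also: wells of about 30 µL received 50 nL stock; many hits fall short of the cut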
Calb FLC = C. albicans growth modulation with fluconazole; growth inhibition, % (no concentration beside the values); C. albicans CaCi-2 (fluconazole-resistant clinical isolate) + fluconazole, Alamar Blue growth, 48 h; 300,000 compounds, 0.57% hits;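 active = most replicates above 75%; inconclusive = exactly half above 75%; inactive = most below 75%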;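 also: all wells also contain fluconazole at 8 µg/ml as a sub-toxic cotreatment; 0% = median of DMSO wells and 100% = median of geldanamycin control wells; wells of about 8 µL received 7.5 nL stock; the first replicate is given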
UCH37 inh = human UCH37 deubiquitinating enzyme inhibition; Q9Y5K5; purified proteasome/UCH37, Ub-AMC cleavage fluorescence; inhibition, % (no concentration beside the values); 330,000 compounds, 0.33% hits;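 active = mean of two replicates above 20%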;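 also: 0% = compound-free wells with enzyme and 100% = wells lacking proteasome; stock transfer was 100 nL into about 20 µL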
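Test system – human UCH37 enzyme supplied as purified proteasome complex · Incubation – 30 min preincubation with enzyme, 25 min cleavage at room temperature · Detection – AMC fluorescence from Ub-AMC cleavage, excitation 355 nm, emission 460 nm · Benchmarks – no-proteasome wells (full inhibition) and compound-free wells (no inhibition)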
T cruzi repl = blocks replication of Trypanosoma cruzi; T. cruzi beta-gal in NIH3T3, luminescence, 90 h; inhibition, % (no concentration beside the values); 300,000 compounds, 1.4% hits; AID 1885;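 active = mean inhibition across valid replicates above about 55%, limit read from the data; inconclusive = mean below that limit but half or more replicates reach it; inactive = mean below it, under half of replicates reach it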;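 also: signal also drops with host cell toxicity which is not excluded here; 0% = plate median of DMSO wells and 100% = zero luminescence signal; higher percent means less beta-gal luminescence so fewer parasites; stock transfer was 50 nL into about 50 µL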
LANA-H2A inh = blocks KSHV LANA binding to histone H2A/H2B; inhibition, % (no concentration beside the values); AID 2629; 320,000 compounds, 0.6% hits; cell-free LANA-H2A/H2B peptide, fluorescence polarization; Q9QR71; in the data active = inhibition mostly above about 10%, no sharp cut-off; inactive = mostly below about 6.7%;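 also: stock transfer was 7.5 nL into about 10 µL; 0% = median of vehicle wells and 100% = median of positive control wells; one replicate is shown; the record names a cut of 25% in any replicate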
Target sequence (Q9QR71 whole entry, looked up): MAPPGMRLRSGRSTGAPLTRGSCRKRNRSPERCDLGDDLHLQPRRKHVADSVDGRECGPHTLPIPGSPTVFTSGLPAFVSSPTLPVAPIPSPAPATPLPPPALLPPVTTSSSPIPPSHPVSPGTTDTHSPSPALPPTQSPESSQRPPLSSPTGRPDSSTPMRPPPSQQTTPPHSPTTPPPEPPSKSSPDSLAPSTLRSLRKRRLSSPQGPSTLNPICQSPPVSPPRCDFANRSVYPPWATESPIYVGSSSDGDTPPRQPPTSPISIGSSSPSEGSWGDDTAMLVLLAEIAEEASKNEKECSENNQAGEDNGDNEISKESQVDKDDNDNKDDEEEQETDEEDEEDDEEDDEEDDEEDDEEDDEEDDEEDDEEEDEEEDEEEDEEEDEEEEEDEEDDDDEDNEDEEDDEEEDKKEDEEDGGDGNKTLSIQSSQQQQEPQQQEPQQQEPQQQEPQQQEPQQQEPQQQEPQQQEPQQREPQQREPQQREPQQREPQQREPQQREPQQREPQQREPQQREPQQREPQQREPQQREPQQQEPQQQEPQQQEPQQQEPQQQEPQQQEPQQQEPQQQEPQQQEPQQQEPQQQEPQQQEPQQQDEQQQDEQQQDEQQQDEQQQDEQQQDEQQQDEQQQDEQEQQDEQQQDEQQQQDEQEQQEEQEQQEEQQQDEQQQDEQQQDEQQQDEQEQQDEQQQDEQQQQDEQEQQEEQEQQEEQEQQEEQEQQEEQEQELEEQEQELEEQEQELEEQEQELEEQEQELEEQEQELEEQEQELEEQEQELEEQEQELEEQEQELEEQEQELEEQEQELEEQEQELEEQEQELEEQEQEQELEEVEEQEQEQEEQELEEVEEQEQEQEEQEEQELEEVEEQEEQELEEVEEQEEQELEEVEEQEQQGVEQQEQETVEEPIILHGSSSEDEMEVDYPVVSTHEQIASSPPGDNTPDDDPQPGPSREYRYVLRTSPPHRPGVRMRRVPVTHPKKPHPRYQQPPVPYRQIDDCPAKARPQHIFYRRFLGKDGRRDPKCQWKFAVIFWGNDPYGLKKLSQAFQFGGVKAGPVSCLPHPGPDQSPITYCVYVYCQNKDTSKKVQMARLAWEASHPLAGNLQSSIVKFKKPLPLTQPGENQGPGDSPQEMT
Starred values were filed as active, the others as inactive; i = inactive; ? = inconclusive; nt = no result given.

SMILES | RanGTP-Impb inh | Beta apoptosis | Beta2AR agonist | A1 inh | Calb FLC | UCH37 inh | T cruzi repl | LANA-H2A inh
CC1=C(C(=O)Nc2ccccc2)C(c2cc(CN3CCOCC3)cs2)C2=C(CCCC2=O)N1 (stereo not given) | 0.9 | -2 | -2 | 0.0 | -4 | -81 | -8 | 2.1
CC(=O)c1ccc(NC(=O)N2CCN(c3ccc(C)cc3)C(C)C2)cc1 (stereo not given) | nt | 8 | 4 | 0.1 | -30 | 4.5 | 2 | -1.6
COCCN1C=C2C(=O)C(C)(OC(=O)C3CCCC3)C(=O)C=C2C=C1c1ccsc1 (stereo not given) | -10 | -16 | 0 | 0.0 | 9 | 46* | 13 | -4.7
CCCCOc1ccc(C2C(C(=O)c3ccc(C)o3)=C(O)C(=O)N2CC2CCCO2)cc1 (stereo not given) | -6.8 | -2 | -9 | 0.0 | 7 | 7.1 | -9 | 2.2
Nn1c(=O)[nH]c2ccccc2c1=O | 0.2 | -5 | 5 | -0.4 | -12 | 3.7 | 0 | -7.5
O=C(Nc1cc2c(cc1Br)OCCCO2)c1ccccc1 | 0.0 | -1 | -4 | 0.2 | -5 | 2.5 | 9 | -1.2
COc1ccccc1OCc1nn[nH]n1 | -3.8 | -6 | -7 | -5.1 | -7 | 2.7 | -2 | 7.8
Cc1ccc(-n2nnnc2SCC(=O)NC2CC2)cc1C | -1.4 | 2 | -6 | -0.1 | -10 | 2.0 | 7 | -7.5
COC(=O)c1nn(-c2ccc(Oc3ccccc3)cc2)c(=O)cc1O | -1.8 | -4 | -12 | 1.5 | 8 | 3.1 | -5 | -4.3
COc1ccc(C(C)=O)cc1COC(=O)c1cnc(C)cn1 | 0.4 | -1 | 5 | -0.3 | -12 | -2.8 | -2 | -3.8
C=C(C)CSc1nnc(CCNC(=O)OC(C)(C)C)o1 | ? | -1 | 6 | 1.0 | 35 | 1.8 | 1 | 3.5
Cc1cc(C)n(C(CC(=O)O)C(=O)O)n1 (stereo not given) | -1.8 | -2 | 4 | 0.5 | -6 | 2.7 | -5 | 2.2

Profiles, looked up by structure. Screens in order: RanGTP-Impb inh	Beta apoptosis	Beta2AR agonist	A1 inh	Calb FLC	UCH37 inh	T cruzi repl	LANA-H2A inh
Shown for CCCCOc1ccc(C2C(C(=O)c3ccc(C)o3)=C(O)C(=O)N2CC2CCCO2)cc1 (stereo not given) : -6.8	-2	-9	0.0	7	7.1	-9	2.2
Shown for Nn1c(=O)[nH]c2ccccc2c1=O : 0.2	-5	5	-0.4	-12	3.7	0	-7.5
Shown for COCCN1C=C2C(=O)C(C)(OC(=O)C3CCCC3)C(=O)C=C2C=C1c1ccsc1 (stereo not given) : -10	-16	0	0.0	9	46*	13	-4.7
Shown for Cc1ccc(-n2nnnc2SCC(=O)NC2CC2)cc1C : -1.4	2	-6	-0.1	-10	2.0	7	-7.5
Shown for COc1ccc(C(C)=O)cc1COC(=O)c1cnc(C)cn1 : 0.4	-1	5	-0.3	-12	-2.8	-2	-3.8

(list continues)
SMILES | RanGTP-Impb inh | Beta apoptosis | Beta2AR agonist | A1 inh | Calb FLC | UCH37 inh | T cruzi repl | LANA-H2A inh
CC(C)(C)OC(=O)C[C@H]1C/C=C\C[C@H](CC(=O)N(CCO)Cc2ccccc2)C(=O)NC[C@H](c2ccccc2)OC1=O | nt | 1 | -12 | 1.2 | nt | 0.6 | nt | 5.3
CC(=O)c1sc(NC(=O)c2ccc(F)c(S(=O)(=O)N3CCOCC3)c2)nc1C | nt | 3 | -1 | -1.8 | nt | 9.3 | nt | 0.9
COc1cc(Nc2ccc(C(=O)O)cc2[N+](=O)[O-])cc(OC)c1 | -4.3 | 8 | -3 | 0.4 | 4 | 10 | 0 | -6.5
Cc1ccc2nc3c(cc(C(=O)NCC4CCCO4)c(=N)n3C3CCCC3)c(=O)n2c1 (stereo not given) | 194* | 5 | -17 | -0.8 | -5 | i | 24 | 6.4
CCCCN(CCCC)NC(=O)c1ccccc1 | 5.8 | 3 | 1 | 0.8 | -9 | -1.8 | -5 | 1.0
CC1Cc2ccccc2N1C(=O)c1cc2c(=O)n3ccccc3nc2n1C (stereo not given) | -0.4 | 0 | 7 | 0.6 | 34 | -33 | 2 | -1.1
Cc1ccccc1Nc1scc(-c2ccc(Cl)cc2)[n+]1-c1ccccc1C | 0.2 | nt | 5 | nt | 5 | -3.3 | 29 | nt
COc1ccc(NC(=O)[C@@H]2CCCN2S(=O)(=O)c2ccc(Cl)cc2)cc1 | nt | 2 | 5 | -0.1 | nt | 0.7 | nt | -2.1
Cc1ccc(S(=O)(=O)N2CCCCC2)cc1NC(=O)[C@@H]1CCCN1C(=O)c1cccs1 | nt | -1 | -1 | 0.5 | nt | 0.9 | nt | -2.7
CC(C)(C)c1ccc(C(=O)C2CCCN(C(=O)C3CCOCC3)C2)cc1 (stereo not given) | 0.4 | 13 | 2 | -0.7 | -7 | 6.9 | 21 | 0.1
Cc1ccc(C)c(OCCSc2nnc(-c3cccnc3)n2N)c1 | -1.1 | -2 | 1 | 0.5 | 1 | 1.4 | -2 | -6.0
COc1ccc(S(=O)(=O)N(C)CC(=O)Nc2cccc(C(C)=O)c2)cc1Cl | 3.2 | 1 | -10 | -0.7 | 15 | -0.6 | 8 | 1.4
O=C(NN=C1CCCC1)c1cc(Br)ccc1O | 0.8 | -5 | -5 | -0.1 | -4 | -154 | 1 | -0.6
COc1cc(C(=O)OCC(=O)N(C)c2ccccc2)cc(OC)c1OC | 4.8 | -3 | 4 | 0.3 | -9 | 2.0 | 13 | 2.5
Cc1ccc(NC(=O)Nc2ccccc2CC[N+](=O)[O-])cc1 | -4.6 | 4 | 7 | -0.5 | 0 | 3.5 | -1 | 0.1
O=C(C1=C[C@H](C2CC2)C[C@H](OCc2ccc(CO)cc2)O1)N1CCN(Cc2ccc3c(c2)OCO3)CC1 | 2.2 | -1 | -3 | -0.3 | 10 | -3.6 | 44 | 3.5
CC(C)(C)c1cc(-c2ccccc2)n[nH]1 | 2.7 | -3 | 11 | -0.8 | -6 | 1.7 | -1 | 2.8
O=C(NCCCc1ccccc1)C1CCC(=O)N(Cc2ccc(Cl)cc2)C1 (stereo not given) | 4.7 | -4 | -11 | 0.3 | -4 | -1.1 | 3 | -0.1
COc1ccc(NC(=O)CN(C)C(=O)c2ccc(C)s2)cc1 | ? | 1 | 2 | 0.0 | -6 | -0.2 | 1 | 5.9
Cc1nn(-c2ccccc2)c2c1C(c1ccc([N+](=O)[O-])cc1)C(C#N)=C(N)O2 (stereo not given) | -5.0 | nt | 7 | -0.9 | -22 | 1.1 | -9 | 4.1
CCCS(=O)(=O)Nc1cccc(-c2nc3cccnc3s2)c1 | 3.9 | -1 | -4 | -0.7 | 4 | -0.7 | 8 | -1.8
COc1ccc([N+](=O)[O-])cc1NCc1ccccc1C | -0.9 | -11 | 0 | 0.5 | -12 | 4.2 | 20 | 1.4
CC(C)(C)OC(=O)NC1CCN(S(=O)(=O)c2ccc3c(c2)OCCO3)CC1 | -3.7 | nt | 3 | nt | 3 | 1.9 | -3 | nt
CCN(CCCNC(=O)Cn1ncc2c([nH]c3ccccc32)c1=O)Cc1ccccc1 | -0.8 | -5 | -6 | -1.6 | -8 | -1.5 | -28 | 4.4
CSc1nsc(SCC(=O)Nc2ccc(NC(C)=O)cc2)n1 | -1.1 | 1 | -10 | -1.2 | -3 | 1.4 | -4 | -3.2
Cc1ccc2nc(SCC(=O)NCc3ccco3)[nH]c2c1 | -3.1 | -1 | 10 | 0.4 | -10 | 0.1 | -9 | -3.0
CS(=O)(=O)N(CC(=O)NCc1ccc(Cl)cc1)C1CCCCC1 | 8.5 | 11 | 3 | -0.7 | -3 | 1.9 | 7 | -0.6
COc1ccc(/C=C/C(=O)N(C)c2ccccc2C(=O)O)cc1 | -0.9 | 0 | -5 | -0.6 | 18 | 3.5 | -19 | -6.2
O=C1CCCN1CC(O)CS(=O)(=O)Cc1ccc(Cl)cc1 (stereo not given) | -3.8 | -6 | 6 | 1.3 | -1 | 6.7 | -11 | 2.2
Cc1ccc(C)c(Cc2c(C)nc3c(C(=O)N4CCOCC4)cnn3c2C)c1 | 10 | -1 | 3 | 0.8 | 19 | -65 | 6 | -3.2
CCCCn1c(N)c(N(CC(C)C)C(=O)COC(=O)C2(c3ccccc3)CC2)c(=O)[nH]c1=O | ? | 1 | -1 | -0.7 | 12 | 5.3 | -10 | -3.2
O=C(N/N=C/c1ccncc1)NC1CCCCC1 | 1.9 | -16 | 4 | 0.0 | -1 | nt | -7 | -3.1
COc1ccc2nc(NC(=O)CSc3nnc(C)n3N)sc2c1 | -3.5 | -9 | 1 | -4.9 | -1 | 3.1 | -3 | 0.0
O=C(Nc1ccc(Cl)cc1N1CCOCC1)C1CC1 | 4.6 | 1 | -8 | 0.5 | 1 | 1.1 | 12 | 3.7
O=S(=O)(NCC1CN(S(=O)(=O)c2ccc3c(c2)OCCO3)C1)c1c(F)cccc1F | nt | 0 | 3 | 0.4 | nt | 1.8 | nt | 5.0
Cc1ccc(-n2nnnc2SCC(=O)c2cc(C)n(CC3CCCO3)c2C)cc1 (stereo not given) | -0.4 | -7 | -1 | -0.5 | 15 | 1.2 | 58* | -0.7
COC(=O)c1ccccc1NC(=O)C(C)c1ccc([N+](=O)[O-])cc1 (stereo not given) | 0.6 | -2 | 6 | 1.1 | -23 | 3.1 | 9 | 3.3
CCC(C(=O)Nc1cc(F)ccc1F)n1nc(C)c2c(C)n(-c3ccc(C)cc3)nc2c1=O (stereo not given) | 2.2 | 20 | 2 | -0.5 | 12 | 2.8 | 5 | -0.9
O=C(CCc1ccccc1F)N1CCN(c2ccc(C(F)(F)F)cn2)CC1 | -3.1 | -7 | -5 | 0.9 | -3 | nt | 16 | 4.4
Cc1ccc(C)c(OCCC(=O)NCCc2ccc(S(N)(=O)=O)cc2)c1 | 4.4 | -1 | 6 | 0.4 | 16 | 2.2 | -7 | 29*
CCS(=O)(=O)N1CCN(c2cnn(-c3ccccc3)c(=O)c2Cl)CC1 | 0.9 | -1 | 3 | 0.0 | -8 | 1.6 | 3 | -3.0
Cc1ccc(NC(=O)c2ccc([N+](=O)[O-])s2)cc1S(=O)(=O)N1CCOCC1 | nt | -8 | 11 | -0.2 | nt | 0.7 | nt | 2.7
O=C(COC(=O)CNC(=O)c1cccs1)Nc1ccc(C(F)(F)F)cc1[N+](=O)[O-] | 0.9 | -9 | 2 | 0.1 | -3 | -0.4 | -2 | -3.3
CCOC(=O)c1c(C)nc2sc(C(=O)Nc3ccc(OC)cc3)c(N)c2c1-c1ccc(OC)cc1 | ? | 14 | 2 | -0.1 | -3 | -13 | 29 | 0.4

Screens from PubChem.
